From PubChem BioAssay
Sa RN4220 lethal: growth inhibition of S. aureus RN4220, primary screen, OD600; 16 h; inhibition, % (no concentration beside the values); actives 0.33% (n = 330,000); AID 1259311, 2017;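 active means z-score of -3 or lower and OD600 up to 0.18 on both plates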;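 further: plate controls were untreated cells for no effect and reference antibiotic for full effect; stock transfer was 100 nL into about 80 µL; one replicate is shown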
Bead autofluor: flagged as autofluorescent in microsphere protease counterscreen. compound autofluorescence counterscreen, microsphere flow cytometry; active compounds read high. actives 3.1% (n = 360,000). fluorescence intensity (no concentration beside the values);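 active means at least 3 SD above the mean of all compounds, about 16000 in these data; inconclusive means too few beads counted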;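 further: 100 nL of 1 mM stock went into each well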
BJeLR lethal: MLPCN primary cell-based screen for lethality selective to Ras in HRASV12 cells. BJeLR (HRASV12) viability, CellTiter-Glo ATP luminescence, 48 h; reference of the scale not given here. inhibition, % (no concentration beside the values). actives 0.17% (n = 300,000);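 active means replicate mean above 50%; inconclusive means above 50% but judged a plate artefact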;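 further: 50 nL library stock added to about 25 µL; numbers are from one replicate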
Mtb hypoxia rep: PubChem AID 1159583 | actives 0.1% (n = 300,000) | M. tuberculosis hypoxia-regulated fluorescent reporter, fluorescence | fluorescence inhibition, % (test concentration not listed);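 active means 35 to 45% if threefold the growth effect, above 45% if 1.5-fold the growth effect; inactive means the rest, general growth blockers included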;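 further: wells of about 50 µL received 100 nL stock; 0% = vehicle wells and 100% = reference inhibitor wells; whole bacteria with a GFP reporter of the hypoxia response; strong numbers were not always called active; many hits fall short of the cut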
Sa ugtP lethal: growth inhibition of ugtP-null S. aureus, primary screen, RN4220 ugtP deletion, OD600 | 16 h; some inactives read as strong as hits | growth inhibition, % (test concentration not listed) | actives 0.54% (n = 330,000) | AID 1259309, 2017;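 active means z-score under -3 and OD600 up to 0.15 on both plates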;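 further: plate controls were untreated wells for no effect and antibiotic for full effect; wells of about 80 µL received 100 nL stock; the first replicate is given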
PrP 5UTR inh: inhibition of PrP 5' UTR reporter expression | actives 0.35% (n = 340,000) | AID 488862, 2010 | cell-based PrP 5' UTR mRNA reporter, plate reader | inhibition, % (concentration not given with the values);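 active means every replicate at 50% or more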;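 further: 0 = median of the neutral control wells; tested in H4 reporter cells; numbers are from one replicate; inactives centre near -14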
Mtb hypoxia rep growth: second read-out of Mtb hypoxia rep, no call of its own (marks repeat the call); growth inhibition, %; measured here: M. tuberculosis growth (absorbance);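 0% = vehicle and 100% = reference antibiotic; read after six days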
Numbers without * were called inactive; ? = inconclusive; nt = not tested or not shown. An unsorted share of the library. Share with any hit: about 4%.

Each structure is followed by: Sa ugtP lethal	Sa RN4220 lethal	Bead autofluor	BJeLR lethal	PrP 5UTR inh	Mtb hypoxia rep	Mtb hypoxia rep growth
Cc1cccc(NS(=O)(=O)c2ccc(C)c(C(N)=O)c2)c1
    nt	nt	4786	5	-20	nt	nt
Cc1onc(-c2ccc(Cl)cc2Cl)c1-c1csc(NN=Cc2ccccc2)n1
    10	-2.1	nt	nt	nt	7	7
O=C(O)c1ccccc1C(=O)NCC(O)c1ccccc1 (stereo unspecified)
    1	3.0	5194	5	-15	0	8
CCC(=O)N/C=C/n1cnc2cc(C(F)(F)F)ccc21
    -5	-5.2	3963	1	-7	-2	3
COc1ccc(NC2=C(NCCO)C(=O)c3ccccc3C2=O)cc1
    1	16	2443	17	-75	-5	3
COc1ccc(C(=O)NC(=S)N2CCOCC2)cc1[N+](=O)[O-]
    5	4.3	5161	8	-8	2	0
C=CCn1c(O)c(C(CC)=Nc2ccc(C(=O)O)cc2)c(=O)[nH]c1=O
    -2	5.0	4080	20	-24	6	6
COc1cccc(Nc2nc(N)c([N+](=O)[O-])c(NCc3ccccc3)n2)c1
    8	-12	nt	2	-18	2	-1
CN(C)S(=O)(=O)N1CCN(C(=O)N2CCCCCC2)CC1
    -3	1.3	11120	-9	-9	2	6
COc1cc(C2N3CC4(C)CN2CC(C)(C3)C4)ccc1O (stereo unspecified)
    1	0.7	3867	-2	-18	4	15
CCOC(=O)C(=Cc1cc(=O)c(OC)co1)C(=O)OCC
    -9	30	2523	50	3	nt	nt
O=S(=O)(c1ccc(-c2ccccc2)cc1)N1CCCC1
    2	5.7	4372	6	-36	8	7
COc1cccc(-c2c3c([nH]c(=O)c2C#N)CCc2cc(OC)ccc2-3)c1
    7	1.2	nt	-6	nt	-4	-15
c1ccc2c(CCc3ccncc3)cccc2c1
    -12	3.7	4166	nt	-20	1	6
CCC1(C)Cc2c(sc3c2c2ncnn2c2nnc(SCC(=O)NCc4ccco4)n32)CO1 (stereo unspecified)
    2	3.9	4889	6	-9	nt	nt
O=C(Nc1ncc2c(n1)-c1ccccc1CC2)c1ccc(F)cc1
    3	8.4	nt	-4	-25	23	19
NC(=O)C1CCCN(C(=O)c2ccc3oc(Cc4ccc(Cl)cc4)nc3c2)C1 (stereo unspecified)
    10	3.1	5433	3	2	4	-11
CCOC(=O)c1nnn(CC(=O)Nc2cc(Cl)ccc2C)c1C(=O)OCC
    -1	4.0	4472	1	7	2	3
CSc1nc(N2CCN(c3ccccc3Cl)CC2)c2ccccc2n1
    0	-3.2	5233	1	-15	-4	-10
CNS(=O)(=O)c1cccc(C(=O)OCCCC(=O)c2ccccc2)c1
    5	6.5	3822	nt	-24	8	2
COc1ccc(CCNC(=O)CNC(=O)c2ccc(Br)o2)cc1OC
    nt	nt	5533	17	-12	nt	nt
O=S(=O)(NCc1ccco1)c1ccc(S(=O)(=O)N2CCCCC2)cc1
    -1	0.2	23145*	-4	-11	0	-4
COCCCn1c(-c2ccccc2Cl)n[nH]c1=S
    -5	-14	2401	-1	-8	17	12
CC(=O)Oc1ccc2oc(-c3ccccc3)c(C(N)=O)c2c1
    7	4.8	nt	2	nt	13	13
Cc1nc(SCC(=O)N(CC(C)C)C2CCS(=O)(=O)C2)c2ccccc2n1 (stereo unspecified)
    3	1.0	2873	nt	-18	-4	-4
O=C(CCN1C(=O)c2ccccc2C1=O)N1CCN(c2ccccn2)CC1
    14	6.1	6571	14	nt	6	9
O=C1Nc2ccccc2C(=O)N2C1C1C(=O)N(Cc3ccccc3)C(=O)C1C2c1ccc(F)cc1 (stereo unspecified)
    7	2.9	nt	nt	nt	-4	7
CCN(C(=O)CSc1nc2cc(S(=O)(=O)N(CC)CC)ccc2n1CC)C1CCS(=O)(=O)C1 (stereo unspecified)
    -6	8.1	?	-2	-20	4	3
COCc1ccc(C(=O)N2CCCC(C(=O)c3ccc(SC)cc3)C2)s1 (stereo unspecified)
    4	0.9	?	5	-13	-9	-19
CC(Oc1ccc(C(=O)c2ccccc2)cc1)C(=O)Nc1ccc(S(N)(=O)=O)cc1 (stereo unspecified)
    1	9.1	2536	10	-28	17	0

The final two compounds of the part above open the next one.
Each structure is followed by: Sa ugtP lethal	Sa RN4220 lethal	Bead autofluor	BJeLR lethal	PrP 5UTR inh	Mtb hypoxia rep	Mtb hypoxia rep growth
COCc1ccc(C(=O)N2CCCC(C(=O)c3ccc(SC)cc3)C2)s1 (stereo unspecified)
    4	0.9	?	5	-13	-9	-19
CC(Oc1ccc(C(=O)c2ccccc2)cc1)C(=O)Nc1ccc(S(N)(=O)=O)cc1 (stereo unspecified)
    1	9.1	2536	10	-28	17	0
O=C(OCCN(C1=NS(=O)(=O)c2ccccc21)c1ccc(Cl)cc1)c1ccco1
    7	15	3193	-2	-6	3	4
OC(CSc1ccccc1Cl)CN1CCN(c2ccc(F)cc2)CC1 (stereo unspecified)
    -6	3.5	11840	6	nt	4	-1
CCc1ccc(NC(=O)CS(=O)CC(=O)Nc2ccc(-n3cnnn3)c(C)c2)cc1 (stereo unspecified)
    6	8.0	5515	2	-3	-1	-10
Cc1ccc(-c2nnc(SCC(=O)N/N=C/c3ccc(C)s3)n2-c2ccccc2)cc1
    nt	nt	2271	1	-19	nt	nt
COc1cc(NC(=O)C(=O)Nc2ccc3nc4n(c(=O)c3c2)CCCCC4)cc(OC)c1OC
    6	2.8	5308	21	-23	-3	-12
CN1CCN(C(=O)CCN2C(=O)c3ccccc3C2=O)CC1
    6	0.4	4011	-3	-34	9	11
S=C(NCC1CCCO1)Nc1ccccc1 (stereo unspecified)
    -4	5.4	2198	1	-17	2	5
CCOC(=O)COc1ccc(C(c2c(C)[nH][nH]c2=O)c2c(C)[nH][nH]c2=O)cc1
    11	2.1	3827	1	-13	2	9
Cc1cc(O)c(C)c(O)c1C=NNC(=O)c1cccnc1
    5	0.3	nt	nt	nt	-3	5
CCN1CCc2[nH]c3ccccc3c2C1
    1	3.4	3806	-23	12	4	18
CC(=O)N1c2ccc(S(=O)(=O)N(C)CC(=O)Nc3cccc(C)c3)cc2CC1C (stereo unspecified)
    5	2.3	6132	-6	-23	5	6
CCOC(=O)N1CCN(C(=O)NC23CC4CC(CC(C4)C2)C3)CC1
    -5	-12	2777	1	-5	11	5
O=C(COC(=O)c1cnccn1)N=c1sccn1Cc1ccccc1Cl
    4	2.9	6649	1	-30	3	3
Cc1ccc2c(c1)N(C)/C(=C/c1cccc[n+]1C)S2
    101*	46	3671	7	-23	nt	nt
CC(C)(C)n1ncc2c(=O)n(CC(=O)OCc3ccccc3)cnc21
    -5	-12	2281	4	60*	23	9
COc1ccc(/C=N/c2c(-c3ccc(OC)cc3)nc3n2CCS3)cc1
    nt	nt	12490	0	-25	nt	nt
Cc1cccnc1NS(=O)(=O)c1cccc([N+](=O)[O-])c1
    nt	nt	10685	-3	-18	nt	nt
CCC(C)Nc1nc(OC(C(F)(F)F)C(F)(F)F)nc(OC(C(F)(F)F)C(F)(F)F)n1 (stereo unspecified)
    12	1.7	2481	-2	-12	nt	nt
COc1cc(NC(=O)CSc2nnnn2Cc2ccc3c(c2)OCO3)cc(OC)c1
    -2	-2.1	4040	-19	-14	nt	nt
CCC(=O)Nc1ccc(NC(=O)c2ccco2)c(OC)c1
    0	5.3	4538	-9	-40	8	6
COc1cccc(NC(=S)NCc2ccc(F)cc2)c1
    6	1.8	3851	-4	-56	14	4
CCOc1ccc(-c2ccc(SC)nn2)cc1
    9	3.2	3431	41	53	3	10
O=C(c1cnc2n(c1=O)CCS2)N1CCN(c2ccc(Cl)c(Cl)c2)CC1
    -2	-2.8	5042	0	-4	-2	20
Cc1cc2ncc(-c3ccccc3)nc2cc1C
    -5	6.9	3576	12	-12	21	17
Cc1nn(Cc2ccccc2Cl)c(Cl)c1C(=O)O
    5	12	4868	-8	-3	3	0
Cc1ccccc1NC(=O)OCc1cccnc1Oc1ccc(Cl)cc1
    6	-1.5	4543	-6	-16	-4	2
COc1cc(OC)cc(-c2sc3ccc(OC)cc3c2-c2ccc3cc[nH]c3c2)c1
    5	-8.1	3933	nt	-11	-6	1
N#Cc1ccc(-c2ccco2)nc1SCc1ccccc1
    -6	0.1	8554	-18	-35	5	7
Cc1ccccc1OCC(=O)N/N=C/c1ccccn1
    nt	nt	2914	0	-13	nt	nt
Cc1ccc(-c2nnc(SC(C)C(=O)NCC3CCCO3)nc2-c2ccc(C)cc2)cc1 (stereo unspecified)
    15	4.3	4430	10	-15	-4	-10

Whole records from above. Order of values: Sa ugtP lethal, Sa RN4220 lethal, Bead autofluor, BJeLR lethal, PrP 5UTR inh, Mtb hypoxia rep, Mtb hypoxia rep growth
Cc1cc(O)c(C)c(O)c1C=NNC(=O)c1cccnc1 is entered as 5, 0.3, nt, nt, nt, -3, 5
COc1cc(NC(=O)CSc2nnnn2Cc2ccc3c(c2)OCO3)cc(OC)c1 is entered as -2, -2.1, 4040, -19, -14, nt, nt
CCc1ccc(NC(=O)CS(=O)CC(=O)Nc2ccc(-n3cnnn3)c(C)c2)cc1 (stereo unspecified) is entered as 6, 8.0, 5515, 2, -3, -1, -10
COc1cc(NC(=O)C(=O)Nc2ccc3nc4n(c(=O)c3c2)CCCCC4)cc(OC)c1OC is entered as 6, 2.8, 5308, 21, -23, -3, -12
CCOC(=O)COc1ccc(C(c2c(C)[nH][nH]c2=O)c2c(C)[nH][nH]c2=O)cc1 is entered as 11, 2.1, 3827, 1, -13, 2, 9

Later entries.
Each structure is followed by: Sa ugtP lethal	Sa RN4220 lethal	Bead autofluor	BJeLR lethal	PrP 5UTR inh	Mtb hypoxia rep	Mtb hypoxia rep growth
O=[N+]([O-])/C=C1\C=CC=CN1Cc1ccc(Cl)cc1
    2	1.3	3506	2	-10	4	-3
COc1ccc(OC)c(C2CC(=O)N3CN(c4ccc(C)c(Cl)c4)CSC3=C2C#N)c1 (stereo unspecified)
    -7	-14	5819	2	-31	9	8
C[C@@H]1CCC[C@@]2(O[C@H](CCO)C[C@@H](O)[C@@H]2O)O1
    nt	nt	3570	2	-6	nt	nt
O=C(CC1CC2CCC1C2)NCCc1ccc(Cl)cc1 (stereo unspecified)
    14	1.5	5601	-7	-20	9	13
CC(C)(C)OC(=O)N[C@H]1C=C[C@@H](OC(=O)CC(=O)OCC(F)(F)F)C1
    5	3.0	3716	nt	-11	2	3
CCN(CC)c1ccc(/C=N/NC(=O)c2ccc([N+](=O)[O-])cc2)cc1
    nt	nt	2390	-3	-27	nt	nt
CCOC(=O)NNC1CC(=O)N(c2ccccc2)C1=O (stereo unspecified)
    13	2.2	2000	-3	-3	0	9
Cc1ccc(S(=O)(=O)N2CCCC(C(=O)N3CCCc4ccccc43)C2)cc1 (stereo unspecified)
    10	0.5	6893	-22	-6	5	6
